Source: PubChem
KCNQ2 inh: KCNQ2 potassium channel inhibitors, primary screen, cell-based, CHO-K1, FluxOR thallium flux, B-score (AID 2156); O88943; 20 min; stronger effect = lower value; only compounds with negative scores are shown here; some inactives read as strong as hits; B-score at 10 µM; actives 1.1% (n = 310,000);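 active = fluorescence ratio B-score at most minus 3 library SDs, with starting brightness B-score within 2 library SDs, cut at about -5.5 in these data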
Target sequence (O88943 whole entry, looked up): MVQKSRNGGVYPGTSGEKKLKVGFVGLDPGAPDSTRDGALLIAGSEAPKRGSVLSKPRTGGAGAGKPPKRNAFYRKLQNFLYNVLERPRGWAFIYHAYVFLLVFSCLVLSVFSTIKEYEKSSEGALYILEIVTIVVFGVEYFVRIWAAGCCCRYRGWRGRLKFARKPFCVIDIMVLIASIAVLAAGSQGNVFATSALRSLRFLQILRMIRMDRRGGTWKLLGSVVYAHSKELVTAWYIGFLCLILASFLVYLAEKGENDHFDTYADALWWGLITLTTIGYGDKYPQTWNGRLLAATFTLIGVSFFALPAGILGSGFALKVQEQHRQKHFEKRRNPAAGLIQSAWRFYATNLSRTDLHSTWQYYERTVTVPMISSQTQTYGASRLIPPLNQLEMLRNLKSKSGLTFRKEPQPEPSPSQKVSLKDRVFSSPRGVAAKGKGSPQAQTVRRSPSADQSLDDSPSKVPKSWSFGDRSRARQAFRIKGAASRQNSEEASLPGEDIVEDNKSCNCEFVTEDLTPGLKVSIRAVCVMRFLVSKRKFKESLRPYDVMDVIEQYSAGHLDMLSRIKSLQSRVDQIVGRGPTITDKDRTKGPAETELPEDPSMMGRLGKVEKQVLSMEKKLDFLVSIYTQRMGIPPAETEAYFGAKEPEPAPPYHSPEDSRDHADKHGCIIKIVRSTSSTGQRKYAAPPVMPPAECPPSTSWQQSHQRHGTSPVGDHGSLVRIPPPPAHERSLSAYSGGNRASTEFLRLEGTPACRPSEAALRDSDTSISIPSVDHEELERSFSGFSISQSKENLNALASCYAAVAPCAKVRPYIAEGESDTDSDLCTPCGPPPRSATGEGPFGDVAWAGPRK
KCNQ2 inh baseline: further read-out of KCNQ2 inh, marked with its call; B-score; measured here: initial fluorescence intensity artifact check;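 brightness before thallium and not channel activity; 0 = typical well and far values either way flag optical interference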
* marks the source's active call; other numbers are inactive results; i = inactive. These rows are one share of the data; count on the stated rates, not on these rows.

cpd	canonical_smiles	KCNQ2 inh	KCNQ2 inh baseline
1	CCc1cc(C(=O)NCC(c2cccs2)N2CCOCC2)sc1C (configuration not stated)	i	0.69
2	COc1ccc(/C=C(\C#N)C(=O)OCC(=O)NCc2ccccc2Cl)cc1	i	0.66
3	CC1CCN(S(=O)(=O)c2ccc(NC(=O)CN3CCCC(C)C3)cc2)CC1 (configuration not stated)	i	1.37
4	Cc1ccc(N2C(=O)c3ccccc3C2Nc2cccnc2)nc1 (configuration not stated)	i	-1.34
5	CN(C)c1ccc(/C=N/N=C/c2ccccc2O)cc1	i	0.04
6	FC(F)(F)c1ccccc1Nc1nccs1	i	0.62
7	CCCCC(=O)NNC(=S)NC(=O)C(c1ccccc1)c1ccccc1	i	0.02
8	COc1ccc(CN(Cc2cccnc2)C(=S)NCCc2ccccc2)cc1OC	i	2.24
9	COc1ccc(C(C(=O)NC(C)(C)C)N(Cc2ccc(F)cc2)C(=O)CCC(=O)Nc2cc(C)on2)cc1 (configuration not stated)	i	-1.28
10	Cc1ccccc1COC(=O)CNC(=O)c1sc2ccccc2c1Cl	i	0.81
11	CCn1cc(C(=O)N(C)c2ccc(OC)cc2)c2cc(OC)c(OC)cc2c1=O	i	-0.03
12	CCOC(=O)CSc1nc2c(sc3ccc([N+](=O)[O-])cc32)c(=O)n1Cc1ccco1	i	3.21
13	O=C(Nc1cccnc1)c1cccc(S(=O)(=O)N2CCc3ccccc32)c1	i	-0.09
14	Cc1ccc(/C=N/NC(=O)C2CCN(Cc3ccc(F)cc3Cl)CC2)o1	i	3.21
15	COc1ccc2nc(C)c3c(c2c1)OC(C(C)(Cl)Br)C3 (configuration not stated)	i	-0.5

Following part:
cpd	canonical_smiles	KCNQ2 inh	KCNQ2 inh baseline
16	CCC(C)NC(=O)c1cnn2c1NC(c1ccc3c(c1)OCO3)CC2C(F)(F)F (configuration not stated)	i	0.46
17	O=C(Nc1ccc2oc(-c3ccccc3)nc2c1)c1ccc2c(c1)OCCO2	i	-2.93
18	O=C(Nc1ccc(NC(=O)C2CC2)nc1)c1ccccc1F	i	1.19
19	COCCCNC(=S)NC(=O)c1ccc(C)cc1	i	-1.79
20	Cc1cc(C)cc(-n2c(=O)c3sccc3n(CC(=O)NCc3ccco3)c2=O)c1	i	-1.01
21	COc1ccc(N2CCN(C(=O)c3ccc4c(c3)CCN4S(=O)(=O)c3ccccc3)CC2)cc1	i	-1.06
22	CCOC(=O)c1c(-c2ccc(OC)cc2)csc1NC(=O)COc1ccc2c(C)cc(=O)oc2c1	i	-0.3
23	COc1ccc(NC(=O)C2CC(=O)n3cnnc3S2)cc1 (configuration not stated)	i	2.9
24	O=C(NCCN1C(=O)S/C(=C\c2ccccc2Cl)C1=O)C1=COCCO1	i	-0.2
25	Cc1cc(C)c(S(=O)(=O)N2CCCCC2)c(C)c1N(C)S(=O)(=O)c1ccccc1	i	-2.57
26	C=CCOc1ccc(CNc2nccs2)cc1	i	3.63
27	Cc1ccc(NC(=O)c2ccc(Cn3cc(Cl)cn3)o2)c(C)c1	i	-0.59
28	Cc1cc(Br)ccc1NC(=O)C(C)c1ccc([N+](=O)[O-])cc1 (configuration not stated)	i	1.59
29	OC(CNCC1COc2ccccc2O1)COCc1cccs1 (configuration not stated)	i	0.31
30	CC(C)Cc1nnc(NC(=O)CSc2ncn[nH]2)s1	i	-0.01

Carrying on.
cpd	canonical_smiles	KCNQ2 inh	KCNQ2 inh baseline
31	O=C1/C(=C/c2ccccc2Cl)SC(=S)N1CCC(=O)N1CCCCC1CCO (configuration not stated)	i	-0.78
32	CCCC(=O)C1=C(N(C)c2ccccc2)CC(C)(C)C(C(=O)OC)C1=O (configuration not stated)	i	-0.8
33	CC(=O)N[C@H]1[C@H](OCc2ccccc2F)O[C@H](COC(C)=O)[C@@H](OC(C)=O)[C@@H]1OC(C)=O	i	1.42
34	CCOc1ccc(NS(=O)(=O)c2ccc(C(=O)N3CCN(C(C)=O)CC3)cc2)cc1	i	-0.48
35	CCOc1cc(NS(=O)(=O)c2ccccc2)c(OCC)cc1NC(=O)c1ccco1	i	-0.28
36	O=C1Nc2cc(Cl)c(Cl)cc2N(O)N1c1ccc(Cl)c(Cl)c1	i	-1.98
37	Cc1ccc(C(=O)Cc2ccccc2)o1	i	0.01
38	COc1ccc(CNC(=O)C(C)n2ccc3cc(S(=O)(=O)N4CCCCCC4)ccc32)cc1 (configuration not stated)	i	0.78
39	CCn1c(COc2ccc(=O)n(-c3ccccc3)n2)nnc1SCc1cccc(OC)c1	i	-0.62
40	CCCOc1ccc(C(=O)N2CCN(Cc3ccc4c(c3)OCO4)CC2)cc1	i	2.19
41	O=C(Nc1ccccc1N1CCOCC1)c1cccc(NS(=O)(=O)c2ccc(F)c(F)c2)c1	i	-0.01
42	Cc1ccc(Nc2nc(N)nc(CN3CCN(Cc4ccc5c(c4)OCO5)CC3)n2)cc1C	i	2.15
43	O=C(NC(=S)NCc1nc2ccccc2[nH]1)c1ccccc1F	i	0.25
44	Cc1ccc(N(C(C)C(=O)Nc2ccc3c(c2)OCO3)S(C)(=O)=O)cc1 (configuration not stated)	i	0.4
45	O=C(/C=C/c1c(Cl)cccc1Cl)N1CCOCC1	i	1.59

Next records.
cpd	canonical_smiles	KCNQ2 inh	KCNQ2 inh baseline
46	COc1cccc(NC(=O)NCCc2ccc(Cl)cc2)c1	i	-1.72
47	O=[N+]([O-])c1ccccc1S(=O)(=O)N1CCN(Cc2ccsc2)CC1	i	-0.12
48	COc1ccc(/C=N\NC(=O)c2cc3c(ccc4ccccc43)o2)cc1O	i	-2.14
49	Cc1ccc(CC2CC(=O)N(C(Cc3ccccc3)C(=O)O)C2=O)cc1 (configuration not stated)	i	0.19
50	CCN(CC)Cc1ccccn1	i	-0.04
51	COc1ccc(-n2nnc3c(=O)n(CC(=O)Nc4cc(C)on4)cnc32)cc1	i	-1.84
52	OC1CCCN(c2c3c(nc4cc(-c5cccc(Cl)c5)nn24)CCC3)C1 (configuration not stated)	i	0.01
53	C=CCN(c1ccccc1)S(=O)(=O)c1cc2c(cc1C)N(C)CCO2	i	-2.05
54	Cc1cccn2c(=O)c3cc(S(=O)(=O)c4ccc(F)cc4)c(=N)n(Cc4ccco4)c3nc12	i	0.43
55	COc1ccc(N2CCN(c3cc(C)c4cccc(C)c4n3)CC2)cc1	i	0.13
56	Cc1ccc(C)c(NC(=O)C2CC(O)CN2C(=O)OC(C)(C)C)c1 (configuration not stated)	i	2.89
57	CC(C)(C)n1nnnc1C(c1cccc(C#N)c1)N1CCCc2ccccc21 (configuration not stated)	i	-0.76
58	CN(C)/C=N/c1nc(-c2ccc3ccccc3c2)cs1	i	-0.73
59	Cc1ccc(C(=O)COc2ccccc2-c2ccccc2)cc1	i	1.73
60	O=C(C1CCN(S(=O)(=O)N2CCC3(CC2)OCCO3)CC1)N1CCOCC1	i	0.58

The list continues:
cpd	canonical_smiles	KCNQ2 inh	KCNQ2 inh baseline
61	COc1cccc(S(=O)(=O)NCc2ccc(C(=O)NCc3ccccn3)cc2)c1	i	-1.58
62	CC(C)c1ccc(OCC(=O)NNC(=S)NC(=O)c2ccco2)c(Br)c1	i	0.01
63	CN1C(CC(=O)Nc2ccc(Br)cc2)c2ccccc2CC1(C)C (configuration not stated)	i	0.87
64	O=C(CN1C(=O)CCSc2ccc(S(=O)(=O)N3CCOCC3)cc21)Nc1ccccc1Cl	i	-0.6
65	Cc1oc(-c2ccc(Cl)cc2)cc1C(=O)NC1CCN(Cc2ccccc2)CC1	i	-2.47
66	CC(C)N(Cc1ccccc1)S(=O)(=O)c1cccs1	i	-0.69
67	CSc1cc(-c2ccncc2)nc(-c2ccc(Cl)cc2)c1	i	0.6
68	O=C(N/N=C1\CCCc2ccccc21)c1ccccc1Cl	i	-0.51
69	CCn1c(SCC(=O)N2CCCCCC2)nc2c(c1=O)SCC2	i	0.03
70	COc1cccc(/C=N/N2CCN(c3ccccc3OC)CC2)c1	-5.55*	0.16*
71	O=C1N[C@@H](Cc2ccccc2)C(=O)N2[C@@H]1C[C@@]1(Br)c3ccccc3N(S(=O)(=O)c3ccccc3)[C@@H]21	i	0.1
72	O=C(CCS(=O)(=O)c1ccccc1)N1CCN(c2ccc(F)cc2)CC1	i	1.02
73	COCc1cc(/C=N\NC(=O)Cc2ccc(Cl)cc2)ccc1OC	i	-0.65
74	CN(C1CCCCC1)S(=O)(=O)c1ccc(-n2cnnn2)cc1	i	0.87
75	FCCCOc1ccc(-c2ccnc(-c3ccccc3)n2)cc1	i	0.02

Next compounds follow.
cpd	canonical_smiles	KCNQ2 inh	KCNQ2 inh baseline
76	C/C(=N\NC(=O)CN(c1ccccc1)S(C)(=O)=O)c1ccccc1O	i	0.91
77	COc1c(C(=O)NNC(=O)c2ccccc2Cl)csc1Br	i	-0.11
78	Cc1ccc(CN2CCN(Cc3ccc(O)cc3)CC2CCO)o1 (configuration not stated)	i	0.31
79	CCOC(=O)CCCc1ccc(/C(C)=N/NC(=S)NC)cc1	i	-0.49
80	CC1(C)Oc2ccc(C(=O)N/N=C/c3ccc(O)cc3)cc2NC1=O	i	-0.33
81	COc1ccc(C(=O)COC(=O)c2cccnc2SC)cc1	i	0.82
82	CCN(CC)CCNC(=O)c1c(O)c2cc(OC)c(OC)cc2[nH]c1=O	i	-1.7
83	Cc1cc(OC(=O)c2ccc(Cl)cc2Cl)nc(C)n1	i	-0.01
84	COc1cccc(CC(=O)Nc2cccc3ccccc23)c1	i	-1.57
85	CC(C)C(=O)Nc1csc(C(F)(F)F)c1-c1ccccc1	i	0.59
86	CCOC(=O)C(CC)(CC)/C(C)=N/NC(=O)CC#N	i	-0.84
87	CC(Oc1ccc2c3c(c(=O)oc2c1)CCCC3)C(=O)NCCCn1ccnc1 (configuration not stated)	i	4.23
88	CC(=O)N(Cc1ccc(F)cc1)C1=C(NCc2ccccc2)C(=O)c2ccccc2C1=O	i	-2.88
89	S=C(NCCc1ccc(Cl)cc1)NCc1ccco1	i	1.21
90	CCOCCCNC(C(=O)Nc1ccc(OC)c(Cl)c1)c1ccccc1 (configuration not stated)	i	-1.57

Next section.
cpd	canonical_smiles	KCNQ2 inh	KCNQ2 inh baseline
91	O=C(c1cc(F)c(F)cc1Cl)N1CCN(CCc2ccccc2)CC1	i	0.58
92	O=C1CC[C@H](N2C(=O)c3ccccc3C2=O)C(=O)N1	i	-0.01
93	O=C(c1cc2ccccc2o1)N1CC=C(c2ccccc2)CC1	i	1.42
94	O=C(CCNC(=O)c1ccc(Br)cc1)Nc1cccc(S(=O)(=O)N2CCCCC2)c1	i	-1.83
95	O=C(CSc1ncn[nH]1)NN(c1ccccc1)c1ccccc1	i	0.12
96	C/C(=C\C(=O)c1ccc(Cl)cc1)Nc1ccc(Br)cc1	-5.95*	0.58*
97	COc1cc(CO)cc(Br)c1OCc1cccnc1	i	-0.11
98	CCn1cc(C(=O)NCCN(CC(C)C)CC(C)C)c(=O)c2cc(S(=O)(=O)N3CCOCC3)ccc21	i	2.3
99	Clc1ccc(-c2noc(/C=C/c3ccccc3)n2)cc1	i	1.12
100	Cn1nc(C(=O)NCc2ccco2)c2ccccc2c1=O	i	0.94
101	COCCNC(=S)N/N=C1\CC(C)CC(C)(C)C1 (configuration not stated)	i	-1.23
102	O=C(NN(c1ccccc1)c1ccccc1)c1ccccc1F	i	0.59
103	COc1ccc(-c2csc3ncn(-c4ccccc4OC)c(=O)c23)cc1OC	i	-0.54
104	O=C(NCc1ccco1)C1CCCN(c2ncnc3c2nc2n3CCCCC2)C1 (configuration not stated)	i	-1.17
105	CCC(C)N(CCNC(=O)CC1Oc2ccccc2NC1=O)C1CCCCC1 (configuration not stated)	i	0.84

Some of these compounds in order of the KCNQ2 inh baseline value, low to high.
cpd	canonical_smiles	KCNQ2 inh	KCNQ2 inh baseline
101	COCCNC(=S)N/N=C1\CC(C)CC(C)(C)C1 (configuration not stated)	i	-1.23
104	O=C(NCc1ccco1)C1CCCN(c2ncnc3c2nc2n3CCCCC2)C1 (configuration not stated)	i	-1.17
97	COc1cc(CO)cc(Br)c1OCc1cccnc1	i	-0.11
96	C/C(=C\C(=O)c1ccc(Cl)cc1)Nc1ccc(Br)cc1	-5.95*	0.58*
99	Clc1ccc(-c2noc(/C=C/c3ccccc3)n2)cc1	i	1.12
98	CCn1cc(C(=O)NCCN(CC(C)C)CC(C)C)c(=O)c2cc(S(=O)(=O)N3CCOCC3)ccc21	i	2.3

Continued.
cpd	canonical_smiles	KCNQ2 inh	KCNQ2 inh baseline
106	Cc1ccc(OC2=NS(=O)(=O)c3ccccc32)cc1	i	-0.39
107	O=C(O)c1cc(-c2ccccc2)n(-c2ccc(Cl)cc2Cl)n1	i	-1.53
108	Cc1c(OCC(=O)NCc2ccncc2)ccc2c3c(c(=O)oc12)CCC3	i	-0.01
109	CCOC(=O)N1CCC(NC(=O)CC2C(=O)NCCN2Cc2ccc(C)cc2)CC1 (configuration not stated)	i	0.16
110	CCOC(=O)/C(C#N)=C/c1ccc(OCC(=O)Nc2ccc(C)c(C)c2)c(OC)c1	i	0.38
111	O=C(Nc1c2c(nc3ccccc13)CCCC2)c1ccccc1F	i	-1.42
112	CC(NC(=O)c1cc(-c2ccncc2)nc2ccc(Cl)cc12)C1CCCO1 (configuration not stated)	i	1.1
113	Cc1ccc2c(c1)c(CC(=O)Nc1ccc(C)c(F)c1)c(C(=O)O)n2C	i	0.22
114	CCC1CN(C(=O)NCc2ccccc2)c2cc(C)ccc2O1 (configuration not stated)	i	-1.28
115	CCC1CCCCN1C(=O)CCCc1ccccc1 (configuration not stated)	i	1.78
116	O=C(NN1C(=O)C2C3c4ccccc4C(c4ccccc43)C2C1=O)c1ccc(Cl)cc1 (configuration not stated)	i	0.87
117	CCCC(C)NNC(=O)c1cc2ccccc2[nH]1 (configuration not stated)	i	-0.07
118	COc1ccc(CN/C(C)=C(/C#N)C(N)=O)cc1OC	i	1.05
119	Cc1ccc(N2CCN(/N=C/C=C/c3ccccc3)CC2)cc1	i	-0.53
120	Cc1c(Cl)cnc(NC(=O)COC(=O)CCC(=O)c2cccs2)c1Cl	i	0.16
121	Cc1ccc(NC(=O)COC(=O)CN2C(=O)NC3(CCCC3)C2=O)cc1S(=O)(=O)N(C)C	i	2.6
122	COc1cc(NS(=O)(=O)c2ccc(NC(=O)c3ccc(Cl)cc3Cl)cc2)ncn1	i	-0.96
